Screening results (PubChem)
Sa helicase inh: S. aureus DNA helicase inhibition | purified S. aureus helicase, fluorescence unwinding assay; about half of the hits fall short of the stated cut | inhibition, %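 (tested at about 80 µM)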 | hit rate 0.05% among 120,000;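 active = both duplicates at 50% or more, or one of them with a favoured structure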;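 also: 0% = mean of negative control wells and 100% = mean of positive control wells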
MgrA DNA FP: alters Staphylococcus aureus MgrA binding to DNA | fluorescence polarization | inhibition, %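 (about 10 µg/mL by stock and volumes)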 | hit rate 0.13% among 84,000;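 active = above 50% in either of two replicates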;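 also: 0% = protein plus DNA without compound and 100% = DNA alone without protein; higher means less MgrA bound to DNA so lower polarization; one replicate is shown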
An asterisk follows results filed as active; · = not tested or not shown; & = joins results of further samples. Only part of the results is shown; count on the stated rates, not on these rows.

Results follow in this order: Sa helicase inh, MgrA DNA FP
COCCCNC1CCN(Cc2ccccc2)CC1
  5.0, 2.8
CCOC(=O)c1sc(Sc2ccc(C(F)(F)F)cn2)c2c1CC(C)(C)CC2=O
  ·, 1.2
C=CCSc1nnc2c(n1)OC(c1cc3c(cc1Br)OCO3)N(C(C)=O)c1ccccc1-2 (stereo unspecified)
  14.0, ·
NC(=O)COc1ncnc2ccc(Br)cc12
  -5.0, ·
O=C(O)CN(CC(=O)O)C(=O)/C=C/c1ccccc1
  -4.0, ·
CCSc1nnc(NC(=O)c2ccc(C)c(S(=O)(=O)N(CC)CC)c2)s1
  -6.0, ·
Cc1ccc(Nc2ccccc2)nn1
  ·, -0.3
CCc1c(C(=O)c2ccc(OC)cc2)oc2c(C)c3oc(=O)cc(C)c3cc12
  5.0, 0.7
Cc1n[nH]c(C)c1N=Nc1ccc(Br)cc1
  -9.0, ·
CC(=O)NN(C)c1ccc(C(F)(F)F)cc1[N+](=O)[O-]
  ·, 3.3
FC(F)(F)c1cccc(-c2nc3ccccn3n2)c1
  ·, -2.7
CCCNC(=O)Cc1ncn[nH]1
  -7.0, -1.2
Cc1cc(C)c(C#N)c(N2CCC(C(N)=O)CC2)n1
  16.0, -1.9
Cc1cc(=O)[nH]c(NNC(=S)Nc2ccc(S(=O)(=O)N3CCOCC3)cc2)n1
  5.0, ·
CCc1nc2ccccc2c(C(=O)OCC(N)=O)c1C
  -35.0, 23.1
COc1cc(-c2nc3ccccc3c(=O)n2NC(=O)c2ccc([N+](=O)[O-])cc2Cl)cc(OC)c1OC
  ·, 2.8
Cc1sc(CO)c(Sc2ccccc2)c1C(=O)O
  8.0, ·
CC(C)(C)C(=O)COC(=O)c1cc(Cl)cc(Cl)c1
  13.0, 1.1
O=C(c1cc2c(s1)-c1ccccc1CC2)N1CCN(Cc2ccccc2)CC1
  ·, -1.6
Cc1ccc(-c2ccc(S(=O)(=O)N3CC(C)OC(C)C3)cc2)cc1 (stereo unspecified)
  13.0, ·
CSc1sc(C(=O)O)c2c1S(=O)(=O)N(C)c1ccsc1-2
  ·, -1.6
COC(=O)C1=C(C)OC(=O)C1(NC(=O)C1CCCCC1)C(F)(F)F (stereo unspecified)
  9.0, 0.0
CCNS(=O)(=O)c1cc(-c2nn(C)c(=O)c3ccccc23)ccc1C
  10.0, 4.5
c1ccc2sc(C3CCCCN3)nc2c1 (stereo unspecified)
  -11.0, ·
CC(C(=O)NC1CCCC1)n1sc2ccccc2c1=O (stereo unspecified)
  -1.0, -0.8
CC(=O)Nc1ccc(N2C(=O)CSC2c2c(F)cccc2Cl)cc1 (stereo unspecified)
  -12.0, ·
Cc1cc(=O)[nH]c(Cc2c(Cl)cccc2Cl)n1
  ·, 0.7
Cc1cccn2c(=O)c(/C=C(\C#N)C(=O)N3CCCCC3)c(N3CCOCC3)nc12
  -12.0, ·
Cc1ccc2oc(=O)c(-c3nc(-c4ccccc4)no3)cc2c1
  -28.0, ·
Cc1ccc(-c2cc(-c3c(C)n[nH]c(=O)c3N)[nH]n2)cc1
  15.0, ·

3 structures from above, sorted by length of the SMILES, lowest first.
Results follow in this order: Sa helicase inh, MgrA DNA FP
Cc1sc(CO)c(Sc2ccccc2)c1C(=O)O
  8.0, ·
CC(C(=O)NC1CCCC1)n1sc2ccccc2c1=O (stereo unspecified)
  -1.0, -0.8
Cc1ccc(-c2ccc(S(=O)(=O)N3CC(C)OC(C)C3)cc2)cc1 (stereo unspecified)
  13.0, ·

Additional results.
Results follow in this order: Sa helicase inh, MgrA DNA FP
CCOC(=O)c1ccc(NC(=O)c2cc(-c3ccc(OC)cc3)nc3ccccc23)cc1
  ·, -0.7
CC1=Nc2ccc(Br)cc2C(c2ccccc2)N1CC(=O)NN (stereo unspecified)
  3.0, -0.7
Cc1ccc(NC(=O)NN2CCOCC2)cc1
  -19.0, ·
CCc1ccccc1NC(=O)CSc1nncn2c1cc1sccc12
  3.0, 0.7
CC(=O)Nc1nonc1NC1=CCCCC1
  10.0, -0.1
CCc1ccc(NC(=O)CSc2nc3ccccc3c(=O)n2CCc2ccccc2)cc1
  3.0, 1.4
Cc1ccc(Nc2cc(-n3nc(C)cc3C)nc(-c3ccccc3)n2)cc1
  7.0, -2.8
CCN1C(=O)C2NN=C(C(=O)c3nc(Cl)ccc3Cl)C2C1=O (stereo unspecified)
  4.0, -0.8
CC(C)N(C(=O)CSc1nc2ccccc2n1CC(=O)N1C(C)CCCC1C)C(C)C (stereo unspecified)
  1.0, 4.3
CN(C(=O)c1ccccc1)c1ccc(OCC(=O)O)cc1
  -26.0, -3.4
O=C(O)CCc1ccc(-c2ccccc2)[nH]1
  2.0, ·
CCN(CC)CC(O)Cn1c2c(c3cc(C)ccc31)CCCC2 (stereo unspecified)
  21.0, ·
O=C(CC1CCCC1)NCc1cn2ccsc2n1
  -4.0, ·
Cc1cc2c(=O)n(Cc3ccco3)c(SCC(N)=O)nc2s1
  0.0, 0.0
O=C(Cn1c2ccc(F)cc2c2nc3n(c(=O)c21)CCS3)N1CCCC1
  -11.0, 1.4
CN(C)S(=O)(=O)c1ccc2[nH]c(=O)[nH]c2c1
  8.0, ·
CCc1nnc(SC(CC)C(=O)N2CCCCCC2)c2cc3sccc3n12 (stereo unspecified)
  0.0, 1.6
CC(C)(C)C(=O)c1sc2c(c1N)c(=O)[nH]c(=O)n2CC1CCCO1 (stereo unspecified)
  11.0, ·
O=C1C=C(NCc2ccccc2)CC(c2ccc(Cl)cc2)C1 (stereo unspecified)
  ·, -2.3
CCOC(=O)c1cccc(NC(=O)c2c(C)[nH]c(C(=O)OCC)c2CC)c1
  22.0, ·
O=C(O)C1=NN(c2ccccc2)C(=O)CC1
  0.0, -3.4
Clc1ccc(Nc2nc3ccccc3s2)cc1
  6.0, 1.6
COc1ccc(OC)c2c(N3CCOCC3)cc(C(F)(F)F)nc12
  6.0, 2.3
CSc1ccc(Cl)c(C(=O)OCC(N)=O)c1
  7.0, 1.2
O=C(CCc1nc2cccnc2n1Cc1ccccc1)NCc1ccccc1
  3.0, ·
CC(C)CC(=O)NC(=S)Nc1cccc2nsnc12
  4.0, -1.5
OCCCn1c(-c2ccccc2)csc1=Nc1ccccc1
  5.0, -2.9
O=C1C(=Cc2ccc([N+](=O)[O-])s2)C(=O)c2ccccc21
  ·, 3.4
O=[N+]([O-])c1cc(Cl)ccc1S(=O)(=O)c1ccccc1
  ·, 1.9
O/N=C(\c1ccccc1)C12CC3CC(CC(C3)C1)C2
  1.0, 2.1
N#CCOC(=O)c1cc(-c2ccccc2)nc2ccccc12
  -11.0, -1.4
Cc1cc(C(C#N)c2nc3ccccc3o2)nc(N2CCN(C(c3ccccc3)c3ccccc3)CC2)n1 (stereo unspecified)
  -25.0, ·
CCN(CC)S(=O)(=O)c1ccc(C(=O)NCCc2cc3ccc(OC)cc3[nH]c2=O)cc1
  -20.0, ·
CCCNC(=O)c1ccccc1NC(=O)C(C)Oc1ccc(Cl)cc1 (stereo unspecified)
  -5.0, ·
COCc1cc(C)nc(NN)c1C#N
  1.0, ·
CC1Cc2ccccc2N1C(=O)C1CCCN1S(=O)(=O)c1cccc2nsnc12 (stereo unspecified)
  16.0, -3.1
CC(C)(C)c1cc(N/C=C/C(=O)c2ccc(Cl)cc2)no1
  ·, 0.6
Cc1cc(Oc2ccnc3cc(Cl)ccc23)ccc1Cl
  ·, 2.0
S=C1NC2=C(CCCC2)C2(CCCCC2)N1
  1.0, -1.9
C#CCOc1cccc2oc(CCC)cc(=O)c12
  10.0, ·
O=C(OCc1cc(=O)n2cc(Br)ccc2n1)c1cc(-c2ccco2)nc2ccccc12
  -4.0, ·
Cc1nn(-c2ccccc2)c2oc(=O)cc(C(F)(F)F)c12
  ·, 2.5
CC(C)(C)NC(=O)Cn1ccc(C(F)(F)F)n1
  ·, 0.1
NCC(O)COCc1ccccc1 (stereo unspecified)
  0.0, -9.2
CCn1c(-c2ccc(OC)cc2)csc1=Nc1ccc(C(=O)O)cc1
  -6.0, ·

Copied from the list:
O=C(O)CCc1ccc(-c2ccccc2)[nH]1 in Sa helicase inh: 2.0
COCCCNC1CCN(Cc2ccccc2)CC1 in MgrA DNA FP: 2.8
Cc1ccc(-c2cc(-c3c(C)n[nH]c(=O)c3N)[nH]n2)cc1 in Sa helicase inh: 15.0
Cc1cc2c(=O)n(Cc3ccco3)c(SCC(N)=O)nc2s1 in MgrA DNA FP: 0.0
CCCNC(=O)Cc1ncn[nH]1 in MgrA DNA FP: -1.2
CCOC(=O)c1sc(Sc2ccc(C(F)(F)F)cn2)c2c1CC(C)(C)CC2=O in MgrA DNA FP: 1.2

(list continues)
Results follow in this order: Sa helicase inh, MgrA DNA FP
c1ccc(OCCn2c(-c3cccs3)nc3ccccc32)cc1
  1.0, -1.7
COc1cc(OC)cc(C(=O)OCC(=O)NC2CC2)c1
  21.0, ·
CCC(Nc1n[nH]c(=O)[nH]c1=O)C(=O)OC (stereo unspecified)
  -15.0, 0.4
C=CCOc1ccccc1CNc1ncn[nH]1
  -14.0, 0.9
CCc1ccc(NS(=O)(=O)c2ccc3[nH]cc(C(=O)NC4CCCCC4)c(=O)c3c2)cc1
  9.0, ·
Cc1onc(-c2c(Cl)cccc2Cl)c1C(=O)N1CCC(C(=O)c2ccccc2)CC1
  ·, -1.2
c1ccc(CSc2ncnc3sccc23)cc1
  -5.0, ·
COC(=O)c1cc(NC2c3ncccc3C(=O)N2c2ccc(OC)cc2)cc(C(=O)OC)c1 (stereo unspecified)
  -24.0, ·
CNC(=O)c1ccc2c(c1)CCO2
  ·, -2.1
CCOC(=O)C1=C(C)NC(C)=C(C(=O)OCC)C1C(=O)OCc1nnc(-c2ccccc2)o1
  -1.0, ·
CC1CCCC(C)N1C(=O)Cn1c(SCC(=O)NCc2ccco2)nc2ccccc21 (stereo unspecified)
  18.0, 0.4
CCCCNC(=O)CC1SC(=NC(c2ccc(OC)cc2)c2c(O)[nH]c(=O)[nH]c2=O)NC1=O (stereo unspecified)
  4.0, ·
O=C(CSc1ccccc1)Nc1c[nH]c(=O)[nH]c1=O
  1.0, 0.2
O=C1C=CC(=O)N1c1cccc2c1CCCC2
  ·, -10.7
O=C(NCCCN1CCOCC1)c1cc2c(s1)CCCC2
  -14.0, -0.8
CCc1c(C)nc2sc(C)n[n+]2c1C
  -14.0, 0.4
O=C(NCCN1C(=O)C2C3C=CC(C3)C2C1=O)OC1CCCCC1 (stereo unspecified)
  35.0, ·
CCn1c(=O)c2sccc2n2c(=S)sc(-c3ccccc3)c12
  10.0, ·
COc1ccc(N2C(=O)C(F)(F)C2c2ccccc2)cc1 (stereo unspecified)
  -7.0, ·
c1ccc(N2CCN(c3ncnc4scc(-c5cccs5)c34)CC2)cc1
  18.0, 0.4
CC1CCN(C(=O)CSc2n[nH]c(-c3ccccc3)n2)CC1
  -11.0, ·
Cc1cccc(C)c1NC(=O)CCCN1C(=O)NC2(CCCC2)C1=O
  -13.0, ·
CCN(CC)CCC(=O)c1ccc(F)cc1
  -8.0, -10.8
Cc1nc(SCC(=O)O)n[nH]1
  2.0, ·
CN1CCN(S(=O)(=O)Cc2cccc(C(F)(F)F)c2)CC1
  ·, -1.8
CC(C)N(CC(N)=O)C(=O)c1ccc(F)c(S(=O)(=O)N2CCCCC2)c1
  5.0, ·
Cc1nn(-c2ccccc2)c(-c2ccc(O)cc2O)c1-c1ccccn1
  -10.0, ·
CC12CCC(C/C1=N\Nc1ccc([N+](=O)[O-])cc1[N+](=O)[O-])C2(C)C (stereo unspecified)
  ·, 3.4
N#Cc1ccc(OC(=O)c2cccc(-n3cccc3)c2)cc1
  14.0, ·
O=C1CC(NCCc2c[nH]c3ccccc23)C(=O)N1Cc1ccccc1 (stereo unspecified)
  3.0, -1.1
COc1ccc(C2NCCC3(O)CCCCC23)cc1 (stereo unspecified)
  -2.0, -2.8
Cc1ccc2onc(CNC(=O)Nc3ccccc3N3CCN(C)CC3)c2c1
  -13.0, ·
CC(C)(C)c1ccc(Oc2ccc(C(F)(F)F)cc2[N+](=O)[O-])c(Cl)c1
  ·, -0.1
CC(C)C(=O)N1N=C(c2ccc(NS(C)(=O)=O)cc2)CC1c1ccccc1 (stereo unspecified)
  10.0, 0.4
CC(C)Oc1nnnn1-c1ccccc1
  5.0, ·
CCSc1nnc(-c2cccc(NC(C)=O)c2)o1
  2.0, -1.5
Cc1ccc(-c2noc(CCC(=O)NC3CCCc4ccccc43)n2)cc1 (stereo unspecified)
  23.0, ·
Cc1ccc(C(=O)NCc2ccco2)c(C)c1
  16.0, -2.5
Nc1ccc(S(=O)(=O)Nc2ccc(Cl)nn2)cc1
  ·, 1.6&0.8
CCN(C(=O)Cn1c(=O)oc2cc(S(=O)(=O)N3CCCCCC3)ccc21)c1ccccc1
  -3.0, ·
O=C(CSc1ccc(Br)cc1)c1cc2ccccc2o1
  -20.0, -0.3
CC1CN(C(=S)NCCc2ccccc2)CC(C)O1 (stereo unspecified)
  0.0, 0.6
O=C1c2ccc(Br)cc2C(=O)N1c1cc(Cl)ccc1O
  -2.0, 0.5
CC(=O)n1c(C)c(-c2ccccc2)c2cc(Cl)ccc21
  3.0, 0.9
CC(=O)NCc1nnc2c3ccccc3c(-c3ccccc3)nn12
  10.0, 1.9
CS(=O)(=O)c1ccc(Cl)c(NC(=O)c2ccc(C#N)cc2)c1
  6.0, ·
CC(=O)Nn1c(C)nc2ccccc2c1=O
  7.0, -1.7
CCCc1cc2c(=O)c(-c3ccc(C(=O)OCC)o3)coc2cc1O
  -18.0, ·
O=C(/C=C/c1ccco1)OC(C(=O)c1ccccc1)C(=O)c1ccccc1
  -1.0, ·
